# Compound activity: PubChem, Broad Institute
# UUG fidelity: alters start codon recognition fidelity in yeast; hit rate 0.13% among 350,000; S. cerevisiae UUG-firefly luciferase reporter, luminescence/redox ratio; activity score, % at 18.7 µM;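 active = replicate mean at a twofold rise or more, about +100% in these data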;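 note: firefly luciferase made from a UUG start codon reports start codon fidelity; reporter light over untreated wells divided by growth signal over untreated wells; some hits fall short of that in this replicate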
# Numbers without * were called inactive. These rows are one share of the data. The share of hits here may be higher or lower than overall.
SMILES,UUG fidelity
O=C(Nc1nccs1)[C@@H]1[C@@H](CO)[C@@H]2Cn3c(cccc3=O)[C@@H]2N1C(=O)C1CCCCC1,-1
COc1ccc(NC(=O)N2CC[C@@H]3[C@H]2c2cc(Br)ccc2N(C)[C@@H]3CO)cc1,-1
COc1ccccc1NC(=O)N1C[C@@H]2[C@H](c3ccccc31)[C@H](CO)N2C(=O)C1CCCC1,6
Cc1ccc(S(=O)(=O)N(C)C[C@H]2Oc3ccc(NC(=O)CCCN(C)C)cc3C(=O)N([C@@H](C)CO)C[C@H]2C)cc1,50
C[C@@H]1CN([C@@H](C)CO)C(=O)c2cccc(NC(=O)c3cnccn3)c2O[C@H]1CN(C)Cc1ccc(C(=O)Nc2ccccc2N)cc1,-2
CNC[C@H]1Oc2ccc(NC(=O)NC3CCCCC3)cc2C(=O)N([C@@H](C)CO)C[C@H]1C,-12
O=C(C[C@@H]1CC[C@@H]2[C@H](COC[C@H](O)CN2Cc2ccccc2F)O1)N1CCc2ccccc2C1,2
COc1ccc(CN(C)C[C@H]2Oc3ccc(NS(=O)(=O)c4ccc(F)cc4)cc3C(=O)N([C@@H](C)CO)C[C@@H]2C)cc1,-12
Cc1noc(C)c1NC(=O)N(C)C[C@H]1Oc2c(NC(=O)c3ccncc3)cccc2C(=O)N([C@@H](C)CO)C[C@@H]1C,-7
CO[C@H]1CN(C)C(=O)c2ccc(NC(=O)c3cnccn3)cc2OC[C@@H](C)N(C(=O)C2CC2)C[C@H]1C,-8
O=C(C1CC1)N1CCCCN2[C@@H](CO)[C@H](c3ccc(C#CC4CC4)cc3)[C@@H]2C1,5
Cc1ccc(S(=O)(=O)N(C)C[C@@H]2Oc3ccc(NC(=O)CCC(F)(F)F)cc3CC(=O)N([C@@H](C)CO)C[C@H]2C)cc1,32
CCN(C[C@H]1N[C@H](CO)[C@H]1c1ccc(-c2cccc(C#N)c2)cc1)C(=O)COC,-12
C[C@H](CO)N1C[C@H](C)[C@@H](CN(C)C(=O)Nc2cccc3ccccc23)Oc2ccc(NS(=O)(=O)c3cn(C)cn3)cc2C1=O,1
C[C@H](CO)N1C[C@H](C)[C@H](CN(C)Cc2ccc(C(F)(F)F)cc2)Oc2c(NC(=O)C3CCOCC3)cccc2C1=O,-9
O=C(Nc1cccc(Cl)c1)N1C[C@H]2[C@@H](c3ccccc31)[C@@H](CO)N2CC1CCOCC1,6
COc1ccc(C#Cc2ccc([C@H]3[C@@H](CO)N4CCCCN(Cc5ccncc5)C[C@@H]34)cc2)cc1,-10
CCNC(=O)C[C@@H]1CC[C@@H]2[C@H](COC[C@@H](O)CN2C(=O)c2cccnc2)O1,-1
CO[C@@H]1CN(C)C(=O)c2cc(NC(C)=O)ccc2OC[C@H](C)N(C(=O)Cc2ccccn2)C[C@@H]1C,-4
COc1cccc(S(=O)(=O)N2CCCCN3[C@H](CO)[C@H](c4ccc(C5=CCCCC5)cc4)[C@@H]3C2)c1,-1
O=C(C[C@@H]1CC[C@@H]2[C@H](COC[C@@H](O)CN2C(=O)Nc2cc(Cl)cc(Cl)c2)O1)N1CCCCC1,3
C/C=C/c1ccc([C@H]2[C@@H](CNS(C)(=O)=O)N(CC3CC3)[C@H]2CO)cc1,-8
Cc1ccc(-c2ccc([C@@H]3[C@H]4CN(C(=O)c5ccncc5)CCCCN4[C@H]3CO)cc2)cc1,-13
CO[C@H]1CN(C)C(=O)c2cc(NC(=O)NC(C)C)ccc2OC[C@@H](C)N(Cc2ccccn2)C[C@@H]1C,-10
COCC(=O)Nc1ccc2c(c1)OC[C@H](C)N(Cc1cc(F)ccc1F)C[C@@H](C)[C@@H](OC)CN(C)C2=O,1

# A second format for 2 compounds above:
mol	UUG fidelity
COc1ccc(CN(C)C[C@H]2Oc3ccc(NS(=O)(=O)c4ccc(F)cc4)cc3C(=O)N([C@@H](C)CO)C[C@@H]2C)cc1	-12
Cc1noc(C)c1NC(=O)N(C)C[C@H]1Oc2c(NC(=O)c3ccncc3)cccc2C(=O)N([C@@H](C)CO)C[C@@H]1C	-7

# Returning to the listing; the five compounds before the break are reprinted first.
SMILES,UUG fidelity
O=C(C[C@@H]1CC[C@@H]2[C@H](COC[C@@H](O)CN2C(=O)Nc2cc(Cl)cc(Cl)c2)O1)N1CCCCC1,3
C/C=C/c1ccc([C@H]2[C@@H](CNS(C)(=O)=O)N(CC3CC3)[C@H]2CO)cc1,-8
Cc1ccc(-c2ccc([C@@H]3[C@H]4CN(C(=O)c5ccncc5)CCCCN4[C@H]3CO)cc2)cc1,-13
CO[C@H]1CN(C)C(=O)c2cc(NC(=O)NC(C)C)ccc2OC[C@@H](C)N(Cc2ccccn2)C[C@@H]1C,-10
COCC(=O)Nc1ccc2c(c1)OC[C@H](C)N(Cc1cc(F)ccc1F)C[C@@H](C)[C@@H](OC)CN(C)C2=O,1
CN(C)C(=O)c1cccc(-c2ccc([C@H]3[C@H](CO)N4CCCCN(CC5CCOCC5)C[C@@H]34)cc2)c1,14
CN(C)C(=O)c1ccc(-c2ccc([C@H]3[C@H]4CN(S(C)(=O)=O)CCCCN4[C@H]3CO)cc2)cc1,9
COc1ccccc1C#Cc1ccc([C@H]2[C@H]3CN(C(=O)C4CCCC4)CCCCN3[C@H]2CO)cc1,6
C[C@H]1CN([C@@H](C)CO)C(=O)c2cccc(NC(=O)c3nc4ccccc4s3)c2O[C@@H]1CN(C)S(=O)(=O)c1cn(C)cn1,-9
COc1ccc(CN(C)C[C@@H]2Oc3c(NC(=O)Nc4c(C)noc4C)cccc3C(=O)N([C@@H](C)CO)C[C@H]2C)cc1,-11
C/C=C/c1ccc([C@@H]2[C@@H](CO)N3CCCCN(S(=O)(=O)c4cccc(C)c4)C[C@@H]23)cc1,-2
COCC(=O)Nc1ccc2c(c1)OC[C@@H](C)N(Cc1ccccc1)C[C@H](C)[C@@H](OC)CN(C)C2=O,4
O=C(C[C@H]1C[C@@H]2c3cc(NC(=O)Nc4ccccc4)ccc3O[C@@H]2[C@H](CO)O1)NCC1CC1,-9
COc1ccc(C#Cc2ccc3c(c2)[C@@H]2[C@@H](CCN2C(=O)c2ccncc2)[C@@H](CO)N3)cc1,-24
C[C@@H]1CN([C@@H](C)CO)C(=O)c2cccc(NS(C)(=O)=O)c2O[C@@H]1CN(C)C(=O)Nc1ccccc1,-17
COc1ccc(NC(=O)N(C)C[C@@H]2Oc3c(NC(=O)Nc4cccc5ccccc45)cccc3C(=O)N([C@H](C)CO)C[C@@H]2C)cc1,0
C[C@@H]1CN([C@@H](C)CO)C(=O)c2cc(NC(=O)Nc3ccc(C(F)(F)F)cc3)ccc2O[C@H]1CN(C)Cc1ccncc1,3
O=C(C1CCOCC1)N1C[C@H]2[C@@H](c3ccccc31)[C@H](CO)N2C(=O)Cc1ccccc1,30
C[C@H]1CN([C@@H](C)CO)C(=O)c2cc(NS(=O)(=O)c3ccc(Cl)cc3)ccc2O[C@@H]1CN(C)S(=O)(=O)c1cn(C)cn1,7
COCC(=O)Nc1ccc2c(c1)OC[C@H](C)N(Cc1ccccn1)C[C@H](C)[C@@H](OC)CN(C)C2=O,-10
COCC(=O)N1C[C@@H](C)[C@H](OC)CN(C)C(=O)c2ccc(NC(=O)NC(C)C)cc2OC[C@H]1C,14
CCCNC(=O)N1[C@H](CO)[C@H](c2ccccc2)[C@@H]1CNC(C)=O,0
COc1ccc(S(=O)(=O)Nc2cccc3c2O[C@@H](CN(C)C(=O)Nc2c(C)noc2C)[C@@H](C)CN([C@H](C)CO)C3=O)cc1,7
O=C(C[C@H]1C[C@H]2c3cc(NC(=O)Nc4ccccc4)ccc3O[C@H]2[C@H](CO)O1)NCC1CC1,-2
C[C@H]1CN([C@@H](C)CO)C(=O)CCCn2nncc2CO[C@@H]1CN(C)C(=O)C1CC1,43
Cc1ccc(S(=O)(=O)N(C)C[C@@H]2Oc3ccc(N(C)C)cc3C(=O)N([C@@H](C)CO)C[C@H]2C)cc1,8
C[C@H]1CN([C@@H](C)CO)C(=O)c2cccc(NC(=O)c3nc4ccccc4s3)c2O[C@@H]1CN(C)Cc1ccc(C(=O)Nc2ccccc2N)cc1,-2
C[C@@H]1CN([C@H](C)CO)C(=O)c2cccc(NC(=O)C3CCCCC3)c2O[C@H]1CN(C)Cc1ccc(Cl)c(Cl)c1,2
C[C@H]1CN([C@@H](C)CO)C(=O)c2cc(NC(=O)Cn3cnnn3)ccc2O[C@H]1CN(C)Cc1ccc2c(c1)OCO2,-9
Cc1noc(C)c1NC(=O)Nc1ccc2c(c1)C(=O)N([C@H](C)CO)C[C@@H](C)[C@@H](CN(C)Cc1ccc3c(c1)OCO3)O2,-8
# (next part)
SMILES,UUG fidelity
Cc1ccc(S(=O)(=O)N(C)C[C@H]2Oc3ccc(NC(=O)Nc4ccc(F)cc4)cc3C(=O)N([C@H](C)CO)C[C@H]2C)cc1,-7
CCCNC(=O)Nc1ccc2c(c1)OC[C@@H](C)N(C(=O)CC)C[C@@H](C)[C@@H](OC)CN(C)C2=O,6
C[C@H]1CN([C@@H](C)CO)C(=O)c2cccc(NC(=O)Nc3cccc4ccccc34)c2O[C@@H]1CN(C)S(=O)(=O)c1cccs1,-9
COCC(=O)N(C[C@@H]1N[C@H](CO)[C@H]1c1ccc(C2=CCCC2)cc1)C(C)C,2
CCC(=O)N1CC[C@H]2[C@H](CO)Nc3ccc(-c4ccc(OC)cc4)cc3[C@H]21,-8
O=C(C[C@H]1C[C@H]2c3cc(NC(=O)CC4CC4)ccc3O[C@H]2[C@@H](CO)O1)NCc1cccnc1,-11
CO[C@@H]1CN(C)C(=O)c2cc(NC(C)=O)ccc2OC[C@@H](C)N(CC2CC2)C[C@@H]1C,-4
COCC(=O)Nc1ccc2c(c1)OC[C@@H](C)N(C(=O)c1cnccn1)C[C@H](C)[C@H](OC)CN(C)C2=O,-13
CC(C)(O)C#Cc1ccc([C@@H]2[C@@H](CO)N3CCCCN(C(=O)c4ccc(F)cc4)C[C@H]23)cc1,14
C[C@H](CO)N1C[C@H](C)[C@H](CN(C)S(=O)(=O)c2ccc(Cl)cc2)Oc2ccc(NC(=O)Nc3cccc4ccccc34)cc2C1=O,3
O=C(Nc1cccc(F)c1)N1CCCCN2[C@@H](CO)[C@@H](c3ccc(C#Cc4ccccc4)cc3)[C@@H]2C1,-6
O=C(Nc1ccccc1F)N1CCCCN2[C@H](CO)[C@@H](c3ccc(-c4cccnc4)cc3)[C@@H]2C1,-12
C[C@H]1CN([C@@H](C)CO)C(=O)c2cc(NS(=O)(=O)c3ccc(F)cc3)ccc2O[C@@H]1CN(C)Cc1ccc(-c2ccccc2)cc1,-10
CO[C@@H]1CN(C)C(=O)c2ccc(NC(=O)c3nc4ccccc4s3)cc2OC[C@H](C)N(Cc2ccncc2)C[C@@H]1C,-2
CCC(=O)N1C[C@H](C)[C@@H](OC)CN(C)C(=O)c2cc(NC(=O)c3ccccc3)ccc2OC[C@H]1C,31
O=C(C[C@H]1CC[C@@H]2[C@H](COC[C@@H](O)CN2Cc2cccc(C(F)(F)F)c2)O1)NCc1ccncc1,-3
CO[C@H]1CN(C)C(=O)c2ccc(NS(=O)(=O)c3cn(C)cn3)cc2OC[C@@H](C)N(Cc2cccc(F)c2)C[C@@H]1C,0
CC(C)NC(=O)N1C[C@H]2[C@@H](c3ccccc31)[C@@H](CO)N2C(=O)Nc1cccc(F)c1,-1
N#Cc1cccc(-c2ccc3c(c2)[C@H]2[C@H](CCN2S(=O)(=O)c2ccccc2F)[C@@H](CO)N3)c1,-15
O=C(C[C@@H]1C[C@@H]2c3cc(NS(=O)(=O)c4ccc(F)cc4)ccc3O[C@@H]2[C@@H](CO)O1)NCc1cc(F)ccc1F,1
O=C(NC1CCC1)[C@H]1[C@H](CO)[C@H]2Cn3c(ccc(C4=CCCC4)c3=O)[C@@H]1N2CC1CC1,4
CCCNC(=O)Nc1ccc2c(c1)C(=O)N(C)C[C@H](OC)[C@@H](C)CN(Cc1cccnc1)[C@H](C)CO2,11

# Pulled by structure from above (2):
SMILES,UUG fidelity
CCCNC(=O)Nc1ccc2c(c1)C(=O)N(C)C[C@H](OC)[C@@H](C)CN(Cc1cccnc1)[C@H](C)CO2,11
CO[C@@H]1CN(C)C(=O)c2cc(NC(C)=O)ccc2OC[C@@H](C)N(CC2CC2)C[C@@H]1C,-4
